Screening results: PubChem BioAssay, National Center for Advancing Translational Sciences (NCATS)
AT treatment = potential ataxia-telangiectasia treatment; […] A-T fibroblasts, KAP-1 phosphorylation AlphaLISA; neocarzinostatin DNA damage 30 min before lysis; Potency, µM (top dose mostly 57.5 µM), for inactives: at the highest dose activation, usual class: activators; 320,000 compounds, 0.19% hits; further: potency means the concentration at half of the fitted maximal effect; % of control where 0% means no effect; nearly all actives have a fitted effect of over 45% in size
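hTERT-immortalized A-T patient fibroblasts ([…]), 500 cells/well in OPTI-MEM, 1% FBS, got compounds for 60 min, then NCS for 30 min at 37C. Lysates were then assayed for phospho-KAP-1 by AlphaLISA (anti-pKAP1 donor, anti-KAP1 acceptor beads), 6 hr at 25C.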
TRPV1 ag = human TRPV1 agonism | TRPV1-expressing cells, Fluo-8 calcium influx, agonist mode | Q8NER1 | activation, % at 8.33 µM | 320,000 compounds, 0.19% hits | AID 540275; in the data active means activation above about 80%; inconclusive means between about 30% and that limit; further: 0% is about no effect
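Fluo-8 calcium influx in TRPV1-expressing cells, kinetic read (ex 480/em 520 nm). Compound added and read 3 min for agonist activity, followed by capsaicin at EC20 final and 2 min further read for enhancement.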
a7 integrin act = activators of alpha7 integrin expression for muscular dystrophy; alpha7betagal myoblasts, beta-gal FDG fluorescence, 48 h; Potency, µM (doses to about 38.3 µM), for inactives: at the top dose activation, most hits filed as activators; 350,000 compounds, 0.064% hits;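 further: potency means the concentration at half of the fitted maximal effect; 100% = response of the positive control SU9516; nearly all actives have a fitted effect of over 60% in size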
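alpha7betagal+/- myoblasts (passage 13, 250/well) treated 48 h at 37C with compounds at 1:260 dilution of DMSO stock. Lysed, then beta-galactosidase activity read as FDG fluorescence (ex 480/em 540) after 30 min, with pre-read for autofluorescence.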
GALK inh = galactokinase (human) inhibition | P51570 | 270,000 compounds, 0.007% hits | Potency, µM (titrated, usually from 57.5 µM), inactives show at the highest dose activity change, negative = inhibition, hits mostly inhibitors | Purified GALK, Kinase-Glo residual ATP luminescence; further: potency means the concentration at half of the fitted maximal effect; on the % scale 0 is the no-effect control and ±100 the full control effect
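5 nM enzyme, 35 uM ATP, 100 uM galactose, 20 mM HEPES pH8.0, 5 mM MgCl2; 1 h RT; residual ATP by Kinase-Glo Plus luminescence, qHTS format.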
MBNL1 CUG block = blocks human MBNL1 binding to CUG repeat RNA; Q9NR56; TR-FRET MBNL1-His/biotin-(CUG)12 binding, 665/545 ratio; Potency, µM (top dose mostly 57.5 µM), without a hit: at the highest dose activity change, negative = inhibition, hits mostly inhibitors; 280,000 compounds, 0.036% hits; AID 2675; active means well fitted inhibition curve with a large enough effect in the signal ratio, with a control signal flat, not every such curve was filed as active; inconclusive means small, poorly fitted or top-dose-only effect, or effect the other way, or a change in a side signal; inactive means no such curve, though single readings can be large or run the other way; the % refers to the signal ratio; further: potency means the concentration at half of the fitted maximal effect; on the % scale 0 is the no-effect control and ±100 the full control effect
Target sequence (Q9NR56 whole entry, looked up): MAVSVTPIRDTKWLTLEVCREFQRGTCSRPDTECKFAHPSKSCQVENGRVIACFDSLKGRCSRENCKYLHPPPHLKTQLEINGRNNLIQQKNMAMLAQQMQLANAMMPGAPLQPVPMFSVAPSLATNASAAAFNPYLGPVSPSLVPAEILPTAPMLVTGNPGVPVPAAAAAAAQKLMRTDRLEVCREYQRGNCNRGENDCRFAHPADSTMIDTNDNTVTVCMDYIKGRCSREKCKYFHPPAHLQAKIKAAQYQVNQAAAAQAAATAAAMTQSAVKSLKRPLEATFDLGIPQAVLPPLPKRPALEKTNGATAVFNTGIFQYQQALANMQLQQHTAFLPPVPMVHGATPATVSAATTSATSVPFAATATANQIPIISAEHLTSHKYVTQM
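His-tagged MBNL1 binding to biotinylated (CUG)12 RNA was measured by TR-FRET using terbium anti-His antibody (0.055 ng/ul final) and streptavidin-XL665 (5 nM final). Compounds were titrated 92 nM to 58 uM; 60 min at room temperature.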
Coupling enz = counter-screen for Giardia aldolase inhibitors: coupling enzyme system. coupling enzyme system counterscreen, AmpLite Red fluorescence. activity change, negative = inhibition, % at 58.2 µM, hits read low. 290,000 compounds, 0.67% hits. AID 2472; in the data active means activity change below about -30%; further: on the % scale 0 is the no-effect control and ±100 the full control effect
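Compounds tested against the coupling enzymes alone at 57.5 uM final; readout was AmpLite Red fluorescence (525/598 nm) after 20 min at RT.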
CXXC DNA block = inhibitors of human MLL CXXC domain-DNA interaction; Q03164; MLL-CXXC / FITC-HOXA9 DNA fluorescence polarization; Potency, µM (top dose mostly 115 µM), for the others: at the highest dose activity change, negative = inhibition, usual class: inhibitors; 290,000 compounds, 0.037% hits; active means well fitted inhibition curve with a large enough effect in the polarisation, with a control signal flat, not every such curve was filed as active; inconclusive means small, poorly fitted or top-dose-only effect, or effect the other way, or a change in a side signal; inactive means no such curve, though single readings can be large or run the other way; the % refers to the polarisation; further: potency means the concentration at half of the fitted maximal effect
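Steps: dispense CXXC domain solution (7 uM) → pin compounds or unlabeled HOX-A9 DNA control → 5 min ambient → add FLSN-HOX-A9 solution (50 nM) → spin → 30 min ambient → fluorescence polarization. Tris pH 7.5/NaCl/DTT/BSA buffer.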
ASM inhibitor = blocks human secretory acid sphingomyelinase | P17405 | placental ASM, HMU-PC fluorogenic substrate, 60 min | Potency, µM (series often up to 57.5 µM), for the others: top-dose activity change, negative = inhibition, actives largely listed as inhibitors | 340,000 compounds, 0.006% hits | AID 504937; further: potency means the concentration at half of the fitted maximal effect
Target sequence (P17405 47-631 limits assumed): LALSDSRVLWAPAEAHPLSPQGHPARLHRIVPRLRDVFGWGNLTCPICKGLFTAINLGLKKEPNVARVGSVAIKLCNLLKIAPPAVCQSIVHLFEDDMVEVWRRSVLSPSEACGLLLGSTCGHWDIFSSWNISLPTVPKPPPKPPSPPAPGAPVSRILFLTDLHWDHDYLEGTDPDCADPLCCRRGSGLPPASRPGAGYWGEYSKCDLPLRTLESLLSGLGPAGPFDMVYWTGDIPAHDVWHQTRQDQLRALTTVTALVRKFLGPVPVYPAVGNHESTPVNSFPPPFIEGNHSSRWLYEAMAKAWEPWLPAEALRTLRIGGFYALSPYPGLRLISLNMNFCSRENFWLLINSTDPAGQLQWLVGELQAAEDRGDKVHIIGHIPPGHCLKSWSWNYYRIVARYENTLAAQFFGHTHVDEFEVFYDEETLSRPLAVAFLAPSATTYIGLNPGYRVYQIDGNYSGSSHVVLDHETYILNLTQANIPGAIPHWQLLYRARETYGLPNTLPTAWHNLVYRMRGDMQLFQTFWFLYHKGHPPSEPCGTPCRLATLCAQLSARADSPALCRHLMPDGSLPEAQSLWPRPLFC
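qHTS format. ASM enzyme prepared from human placenta hydrolyses the fluorogenic substrate HMU-PC0 (9 uM final) over 60 min at 37 °C after a 10 min compound preincubation.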
* marks the source's active call; other numbers are inactive results; ? = inconclusive; nt = not tested or not shown; & = joins results of further samples; [ ] = another dose, or the depositor's remark. Unless noted, the call rests on the fitted dose curve; in most records, active means well fitted curve in the direction sought with a large enough effect; inconclusive means small, poorly fitted or top-dose-only effect, or another doubt; inactive means no such curve, though single readings can be large; an effect the other way counts as inactive or inconclusive.

#1 CC(=O)Nc1ccc(S(=O)(=O)NC2(C(F)(F)F)C(=O)Nc3c2c(=O)[nH]c(=O)n3Cc2ccco2)cc1 (stereo not given)
#2 O=C(N/N=C/c1ccc2c(c1)OCO2)c1ccc(Br)o1
#3 C/C(=N/OCO/N=C(/C)c1ccc(F)cc1)c1ccc(F)cc1
#4 O=C(Cn1c2ccccc2c(=O)c2cc([N+](=O)[O-])ccc21)Nc1ccccc1Cl
#5 C=CCS(=O)(=O)N1CCC(CCOc2ccccc2)(C(=O)OCC)CC1
#6 CC(C)C(=O)NC(Nc1cc(C(F)(F)F)ccc1Cl)C(Cl)(Cl)Cl (stereo not given)
#7 N#Cc1ccc(CNC(=O)N2CCOCC2)cc1
#8 O=C(O)C1C2C=CC(C2)C1C(=O)NCCC1=CCCCC1 (stereo not given)
#9 O=C(NC[C@@H]1CCCCN1)c1cc(OCC(F)(F)F)ccc1OCC(F)(F)F
#10 N[C@H]1CONC1=O

entry no.	1	2	3	4	5	6	7	8	9	10
CXXC DNA block	2%	4%	-11%	nt	nt	1%	5%	-3%	nt	-5%
GALK inh	-1%	-5%	1%	0%	12%	0%	4%	0%	nt	nt
a7 integrin act	12%	25%	0%	-45%[inhibitor]	0%	-33%	-17%	-17%	nt	nt
Coupling enz	3	1	0	-1	4	1	1	6	6	nt
MBNL1 CUG block	-3%	?	?	?	-15%	nt	3%	0%	nt	nt
ASM inhibitor	4%	3%	-1%	40%[activator]	0%	-10%	2%	-3%	nt	3%
TRPV1 ag	-4	-3	?	2	15	5	7	2	nt	nt
AT treatment	-3%	-5%	31%	-6%	-4%	0%	1%	3%	nt	nt

#11 COc1ccc(Nc2nc(N)nc(CCl)n2)cc1
#12 Cc1ccc(S(=O)(=O)N2CCN(c3ncnc4ccccc34)CC2)cc1
#13 OCCOCCN1CCN(C2=Nc3ccccc3Sc3ccccc32)CC1
#14 N[C@@H](CC(=O)O)C(=O)O
#15 C=CCn1c(=S)[nH]c2scc(-c3ccco3)c2c1=O
#16 O=C(N/N=C/c1ccc(OC(=O)c2ccccc2Br)cc1)c1ccccn1
#17 O=C(CSc1ccc(Cl)cc1)N1CCN(c2ccc(Cl)cc2[N+](=O)[O-])CC1
#18 CCOc1ccccc1NC(=S)N(Cc1cc2ccc(C)cc2[nH]c1=O)CC1CCCN1CC (stereo not given)
#19 CN1CCN(NC(=O)/C=C/c2cccc([N+](=O)[O-])c2)CC1
#20 CCOC(=O)/C(=C\c1ccc([N+](=O)[O-])o1)NC(=O)c1ccccc1

entry no.	11	12	13	14	15	16	17	18	19	20
CXXC DNA block	-2%	nt	2%&4%&15%	-4%	nt	-3%	0%	8%	-26%	nt
GALK inh	nt	nt	-1%	nt	3%	7%	-3%	-1%	nt	-1%
a7 integrin act	-67%[inhibitor]	-40%	nt	nt	8%	-11%	0%	-46%[inhibitor]	14%	-45%
Coupling enz	0	nt	2&1&3&-5	1	5	nt	nt	0	7	0
MBNL1 CUG block	-12%	nt	14%&-4%	nt	nt	-6%	?	3%	?	?
ASM inhibitor	2%	2%	-5%&5%	nt	7%	-3%	-15%	5%	-2%	-3%
TRPV1 ag	1	15	4&-3	nt	1	2	27	14	-2	0
AT treatment	-4%	13%	7%	nt	-7%	30%	-4%	0%	23%	7%

#21 N#Cc1nc(Cc2cccc3ccccc23)oc1N1CCN(c2ccccc2)CC1
#22 CC(C)CC(=O)NCc1ccc2[nH]c3c(c2c1)CCCC3
#23 CCOC(=O)N1CCN(C(=O)c2ccc3c(=O)n(-c4ccc(F)cc4)c(=S)[nH]c3c2)CC1
#24 COCCNC(=O)C(c1ccncc1)N(Cc1ccccc1)C(=O)Cn1nnc2ccccc21 (stereo not given)
#25 CCOC(=O)CCC(=O)O[C@H]1C(O[C@@H]2C(C)[C@H](O[C@H]3C[C@@](C)(OC)C(O)C(C)O3)C(C)C(=O)OC(CC)[C@@](C)(O)C(O)[C@H](C)C(=O)C(C)C[C@]2(C)O)OC(C)CC1N(C)C (stereo not given in full)
#26 O=C(O)c1ccc(S(=O)(=O)N2CCC(NC(=O)C3CCCCC3)CC2)cc1
#27 O=C(CSCc1ccc([N+](=O)[O-])cc1)NN=C1CCCCCC1
#28 O=C(O/N=C\c1ccc(N2CCCCC2)c([N+](=O)[O-])c1)c1cccc(Cl)c1
#29 COc1cc(NS(C)(=O)=O)ccc1Nc1c2ccccc2nc2ccccc12
#30 Cc1ccc(CNC(=O)C2CC3Cn4c(nc5cc6ccccc6cc54)C3N2C)o1 (stereo not given)

entry no.	21	22	23	24	25	26	27	28	29	30
CXXC DNA block	17%	nt	0%	7%	nt	1%	-4%	0%	?	2%
GALK inh	2%	0%	0%	1%	nt	-3%	-2%	nt	nt	-4%
a7 integrin act	-6%	-11%	43%	-7%	nt	-4%	22%	15%	nt	2%
Coupling enz	5	-8	2	0	2	1	0	-2	nt	-2
MBNL1 CUG block	-5%	7%	2%	-1%	nt	-4%	?	5%	?	16%
ASM inhibitor	1%	5%	2%	8%	nt	1%	1%	-3%	342%[activator]	6%
TRPV1 ag	-1	13	-3	-1	nt	1	-6	-1	3	0
AT treatment	nt	3%	nt	-2%	nt	1%	10%	-5%	13%	6%

A draw from above in order of formula weight, largest number first.
#24 COCCNC(=O)C(c1ccncc1)N(Cc1ccccc1)C(=O)Cn1nnc2ccccc21 (stereo not given)
#21 N#Cc1nc(Cc2cccc3ccccc23)oc1N1CCN(c2ccccc2)CC1
#29 COc1cc(NS(C)(=O)=O)ccc1Nc1c2ccccc2nc2ccccc12

entry no.	24	21	29
CXXC DNA block	7%	17%	?
GALK inh	1%	2%	nt
a7 integrin act	-7%	-6%	nt
Coupling enz	0	5	nt
MBNL1 CUG block	-1%	-5%	?
ASM inhibitor	8%	1%	342%[activator]
TRPV1 ag	-1	-1	3
AT treatment	-2%	nt	13%

Among those listed so far, 3 have a COOH group.
#8 O=C(O)C1C2C=CC(C2)C1C(=O)NCCC1=CCCCC1 (stereo not given)
#14 N[C@@H](CC(=O)O)C(=O)O
#26 O=C(O)c1ccc(S(=O)(=O)N2CCC(NC(=O)C3CCCCC3)CC2)cc1

entry no.	8	14	26
CXXC DNA block	-3%	-4%	1%
GALK inh	0%	nt	-3%
a7 integrin act	-17%	nt	-4%
Coupling enz	6	1	1
MBNL1 CUG block	0%	nt	-4%
ASM inhibitor	-3%	nt	1%
TRPV1 ag	2	nt	1
AT treatment	3%	nt	1%

Next section
#31 O[C@@H](c1cc(C(F)(F)F)nc2c(C(F)(F)F)cccc12)[C@H]1CCCCN1
#32 Cc1cc(C(=O)NNCc2ccccc2)no1
#33 CC(=O)CCc1oc2ccc([N+](=O)[O-])cc2c1-c1ccc(C)o1
#34 CN(C)CC/C=C1/c2ccccc2COc2ccccc21
#35 CC(=O)CC(c1ccc([N+](=O)[O-])cc1)c1c(O)c2ccccc2oc1=O (stereo not given)
#36 CCOc1cc(/C=N/n2cnnc2)ccc1OC(=O)c1cccc([N+](=O)[O-])c1
#37 CN(C(=O)COC(=O)c1cccnc1Nc1cccc(C(F)(F)F)c1)C1CCS(=O)(=O)C1 (stereo not given)
#38 O=C1CC(N2CCN(c3nc4ccccc4s3)CC2)C(=O)N1c1cccc(F)c1 (stereo not given)
#39 Fc1cccc(CN2CCCCCCC2)c1
#40 CCOc1cc(C2C3=C(CC(C)(C)CC3=O)N(C)C3=C2C(=O)CC(C)(C)C3)ccc1O

entry no.	31	32	33	34	35	36	37	38	39	40
CXXC DNA block	-3%	-12%[51.4 µM]	0%	7%	-7%	0%	3%	1%	-8%	4%
GALK inh	nt	nt	4%	-3%	-3%	-2%	0%	-5%	13%	5%
a7 integrin act	nt	nt	14%	nt	nt	9%	-23%	11%	-9%	-17%
Coupling enz	nt	3	-5	-3&3	7	0	2	1	-7	1
MBNL1 CUG block	nt	nt	6%	0%	?	?	-13%	-5%	9%	15%
ASM inhibitor	-5%	2%	3%	nt	4%	-1%	2%	-15%	5%	17%
TRPV1 ag	19	1	?	1	1	-4	4	-4	1	5
AT treatment	-4%	8%	-4%[11.5 µM]	nt	-2%	6%	1%	-4%	2%	6%

#41 N[C@@H]1CONC1=O
#42 Nc1ccc(S(=O)(=O)Nc2ccccn2)cc1
#43 Cc1cc(/C=N\NC(=O)COc2cccc3cccnc23)c(C)n1-c1ccccc1
#44 C/C(=N\NC(=O)c1nnn(-c2nonc2N)c1CSc1ccc(Cl)cc1)c1cccnc1
#45 C#CC1(O)CCC2C3CCC4=C(CCC(=O)C4)C3CCC21C (stereo not given)
#46 C[N+]1(C)CCC(OC(=O)C(O)(c2ccccc2)C2CCCC2)C1 (stereo not given)
#47 CC1(C)C(O)CC[C@]2(C)C1CC[C@@]1(C)C2C(=O)C=C2[C@@H]3C[C@@](C)(C(=O)O)CC[C@@]3(C)CCC21C (stereo not given in full)

entry no.	41	42	43	44	45	46	47
CXXC DNA block	-8%&-7%&-2%	-1%	1%	nt	nt	nt	nt
GALK inh	0%	nt	1%	1%	nt	nt	nt
a7 integrin act	nt	nt	18%	?	-30%[inhibitor]	nt	nt
Coupling enz	4&-2&-2	-2&2&-1	6	-14	nt	nt	6
MBNL1 CUG block	-5%	-46%	-5%	-10%	nt	nt	nt
ASM inhibitor	nt	5%	-13%	-8%	-2%	1%	nt
TRPV1 ag	0	-3	2	5	nt	nt	nt
AT treatment	nt	15%	-13%	-3%	nt	nt	nt

An excerpt (hit frequency here may not be typical).
